Sa growth inh = inhibitors of Staphylococcus aureus growth at 42 °C | 170,000 tested, 0.53% active | relative growth, % (test concentration not listed) | S. aureus RN4220 growth, OD600, 20 h; stronger effect = lower value;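 active = growth at 42 °C up to 50% and 20 or more points under that at 30 °C, or under 10% at both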;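 also: 300 nL library stock went into each well; scaled to the means of positive and negative controls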
HCMV UL50-53 inh = disrupts HCMV UL50-UL53 complex binding | HTRF UL50-UL53 interaction, normalized percent inhibition | inhibition, % (no concentration beside the values) | 190,000 tested, 0.15% active;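 active = both replicates at 50% or more, plus weaker picks with an unusually low signal ratio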;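 also: stock transfer was 100 nL into about 20 µL; 0% = negative control wells and 100% = wells with untagged competitor protein; inactives centre near -12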
GIV Gai3 FP = blocks GIV peptide binding to rat Galpha-i3. Galpha-i3/FITC-GIV peptide fluorescence polarization, 90 min; stronger effect = lower value; scaled: aluminum fluoride 0%, vehicle 100%. 210,000 tested, 0.42% active. P08753. percent of control (FP), % (test concentration not listed). AID 1224905;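 active = replicate mean at 85% of control or lower, very high polarization wells dropped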;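 also: wells of about 15 µL received 100 nL stock; the first replicate is given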
Target sequence (P08753 whole entry, looked up): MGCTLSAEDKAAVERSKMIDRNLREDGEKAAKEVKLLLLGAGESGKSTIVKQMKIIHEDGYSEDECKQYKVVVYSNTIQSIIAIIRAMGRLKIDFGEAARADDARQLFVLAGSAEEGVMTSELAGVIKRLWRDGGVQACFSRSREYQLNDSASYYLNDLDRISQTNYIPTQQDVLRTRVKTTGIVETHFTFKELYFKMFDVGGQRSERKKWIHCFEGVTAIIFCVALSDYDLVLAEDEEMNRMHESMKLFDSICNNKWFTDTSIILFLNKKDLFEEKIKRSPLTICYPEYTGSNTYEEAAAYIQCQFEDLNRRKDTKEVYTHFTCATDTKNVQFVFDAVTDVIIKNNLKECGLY
Sa growth inh second temp = also measured in Sa growth inh; calls as there; relative growth, %; measured here: growth at 30 °C;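 optical density after 20 h as mean of two plates; 100% = untreated growth and lower means inhibition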
The depositor's hits bear a star; x = not tested or not shown; & = joins results of further samples.

A first look, five compounds:
SMILES	Sa growth inh	Sa growth inh second temp	HCMV UL50-53 inh	GIV Gai3 FP
COc1ccc(C2CC(=O)C3=C(C2)Nc2ccccc2NC3c2cccc(Br)c2)cc1OC (stereo unspecified)	x	x	-39	106
CNC(=S)Nc1cccc(C(F)(F)F)c1	114	97	-7	103
Cc1ccc(NC(=O)C2CCCN2S(=O)(=O)c2ccc3c(c2)n(C)c(=O)c(=O)n3C)cc1 (stereo unspecified)	99	98	-2	101
Cc1ccnc(NS(=O)(=O)c2ccc(NC(=O)c3cc(=O)c4ccc(C)c(C)c4o3)cc2)n1	105	89	-36	101
Cc1ccc(-n2ncc3c(N(C)C)ncnc32)cc1	109	100	-2	108

All compounds of this part, from the start:
SMILES	Sa growth inh	Sa growth inh second temp	HCMV UL50-53 inh	GIV Gai3 FP
COc1ccc(C2CC(=O)C3=C(C2)Nc2ccccc2NC3c2cccc(Br)c2)cc1OC (stereo unspecified)	x	x	-39	106
CNC(=S)Nc1cccc(C(F)(F)F)c1	114	97	-7	103
Cc1ccc(NC(=O)C2CCCN2S(=O)(=O)c2ccc3c(c2)n(C)c(=O)c(=O)n3C)cc1 (stereo unspecified)	99	98	-2	101
Cc1ccnc(NS(=O)(=O)c2ccc(NC(=O)c3cc(=O)c4ccc(C)c(C)c4o3)cc2)n1	105	89	-36	101
Cc1ccc(-n2ncc3c(N(C)C)ncnc32)cc1	109	100	-2	108
CC1CN(C(=O)N2CCC(C(=O)NCc3ccco3)CC2)c2ccccc2O1 (stereo unspecified)	99	85	-20	105
O=C(COc1ccccc1)NCC(c1cccs1)S(=O)(=O)c1ccc(Cl)cc1 (stereo unspecified)	100	78	x	95
O=C(Cn1c(=O)n(Cc2ccc(C(=O)NCc3ccco3)cc2)c(=O)c2sccc21)Nc1ccc(F)cc1	100	80	-13	108
CCOC1Cc2ccccc2N(C(N)=O)c2ccccc21 (stereo unspecified)	105	105	14	108
O=c1c2oc3ccccc3c2n(Cc2ccccc2F)c(=O)n1Cc1ccco1	93	87	x	98
COc1ccc(CCNc2nc3c(c(=O)n(C)c(=O)n3C)n2Cc2ccc(F)cc2)cc1OC	101	92	-40	108
Cc1cc(C)c2c(-n3cccc3)c(C(=O)N3CCC(C)CC3)sc2n1	91	82	1	100&94
CN1C(=O)C2CCCCN2c2ccc(C(=O)N3CCc4ccccc4C3)cc21 (stereo unspecified)	x	x	-15	105
Cc1cc(C(=O)NC2CCCC2)on1	108	88	x	107
CC(C)Oc1ccc(NS(=O)(=O)c2ccc(N3C(=O)C(C)CS3(=O)=O)cc2)cc1 (stereo unspecified)	x	x	2	109
COc1ccc(C(=O)Nc2nc3n(n2)C(c2ccc(F)cc2)C=C(c2ccc(Cl)cc2)N3)cc1 (stereo unspecified)	76	58	-17	-66*
CCc1ccc(S(=O)(=O)c2nnn3c2nc(N2CCN(CC)CC2)c2sccc23)cc1	95	80	x	102
Cc1ccc(Cl)cc1NCN1C(=O)CNC1=S	89	87	-19	106
O=C(Cn1c2ccccc2c(=O)c2cc([N+](=O)[O-])ccc21)Nc1ccc(Oc2ccccc2)cc1	x	x	-12	106
O=C(Nc1cccc(Cl)c1)c1ccc(CNc2c(N3CCCCC3)c(=O)c2=O)cc1	x	x	-15	95
CSc1scc(NC(=O)c2ccc(C)cc2)c1S(=O)(=O)C(C)C	92	82	-15	99
CN(C)c1ccc(C(=O)NCCc2ccccc2)cc1	115	98	-20	x
CN1CCN(C(=O)c2ccc(Cl)cc2)c2ccccc21	x	x	-24	102
CCN(Cc1ccccc1)c1ccc(/C=N/O)cc1	98	38	-1	x
O=S(=O)(c1ccc2c(c1)CCCC2)N1CCCC1c1ccc(Cl)cc1 (stereo unspecified)	x	x	-19	98
O=S(=O)(NCc1csc(-c2cccs2)n1)c1ccc2c(c1)OCCCO2	97	80	-51	106
CCN(CCC(=O)N1CCNCC1)C(=O)c1ccc(Cl)cc1	x	x	-10	97
Cc1noc(C)c1C(=O)Nc1ccc2c(c1)C(=O)OC2	97	88	-7	97
O=C(CCCc1nc2ccccc2s1)NC1=NCCS1	107	108	-3	x
Cc1cccc(NC(=O)Cn2c(=O)n(Cc3ccc4c(c3)OCO4)c(=O)c3oc4ccccc4c32)c1	x	x	-120	103
COc1ccc(S(=O)(=O)N2CCCC(C(=O)N(Cc3cccs3)C3CC3)C2)cc1Cl (stereo unspecified)	132	101	1	106
CCOCCCn1c(SCC(=O)Nc2cc(C)ccc2C)nc2c(oc3ccccc32)c1=O	92	82	-27	99
CCOC(=O)c1c(N)sn(-c2ccccc2)c1=S	93	102	-28	x
O=C(N/N=C/c1ccncc1)C12CC3CC(CC(C3)C1)C2	93	85	-64	101
O=C(O)COCC(=O)Nc1nnc(C2CC2)s1	101	94	4	106
CCOC(=O)C1=C(C)N=c2s/c(=C3\C(=O)N(C)c4ccccc43)c(=O)n2C1c1ccc(OC(C)=O)cc1 (stereo unspecified)	x	x	-19	105
CCOC(=O)c1sc2nccc(N(C)C)c2c1N=CN(C)C	126	101	-44	100
CCOc1ccc(CCNC(=O)Cn2c(=O)c(=O)n(Cc3ccc(Cl)cc3)c3ccccc32)cc1	x	x	-31	98
CC(C)(C)C(=O)NCC(=O)NC1=NCCS1	85	81	-41	x
CCOC(=O)c1c(Nc2nc3ccccc3nc2N2CCN(C)CC2)sc2c1CCCC2	100	91	-36	x
Cn1c(C(=O)Nc2cccc(C(F)(F)F)c2)cc2c(=O)n3ccccc3nc21	86	83	-2	105
Cc1ccccc1NC(=O)Nc1c(C)nc2nc[nH]n2c1=O	x	x	-11	104
CCOC(=O)c1c(C)[nH]c(C(=O)N2CCC(C(C)C(=O)N3CCN(c4ccccn4)CC3)CC2)c1C (stereo unspecified)	x	x	-6	102
CC(NC(=O)C1CCCN(S(=O)(=O)c2ccc3c(c2)CC(C)N3C(=O)C2CC2)C1)c1ccccc1 (stereo unspecified)	94	83	-17	102
COc1ccc2[nH]cc(NC(=O)N3CCN(C)CC3)c(=O)c2c1	92	80	-22	98
Nc1nc(-c2ccccc2)nn1C(=O)c1ccccc1	x	x	-28	106
c1ccc2[nH]c(CSCCC3CCCCC3)nc2c1	82	50	x	101
Cc1cccc(NC(=O)Nc2ccccc2SCc2cc(=O)n3c(ncn3CC(C)C)n2)c1	x	x	-25	99

Quoted at random: 2 records from the list, in no set order.
SMILES	Sa growth inh	Sa growth inh second temp	HCMV UL50-53 inh	GIV Gai3 FP
COc1ccc(C2CC(=O)C3=C(C2)Nc2ccccc2NC3c2cccc(Br)c2)cc1OC (stereo unspecified)	x	x	-39	106
CCOc1ccc(CCNC(=O)Cn2c(=O)c(=O)n(Cc3ccc(Cl)cc3)c3ccccc32)cc1	x	x	-31	98

More entries.
SMILES	Sa growth inh	Sa growth inh second temp	HCMV UL50-53 inh	GIV Gai3 FP
O=C(CSc1nc2c(c(=O)n1-c1ccccc1)SCC2)N1CCCc2ccccc21	95	74	x	103
Cc1ccccc1C(OCC(O)CN1CCC(C(N)=O)CC1)c1ccccc1 (stereo unspecified)	107	91	-7	x
CCOC(=O)N1CCc2c(sc3c2c(=O)n(-c2ccc(CC)cc2)c(=O)n3Cc2cccc(Cl)c2)C1	109	86	-12	106
CC(C)N(Cc1ccc(N(C)C)cc1)S(=O)(=O)c1cccc(C(F)(F)F)c1	84	88	-16	107
CC(C)(C)OC(=O)N1CCC(c2c(C(=O)N3CCCCC3)cnn2-c2ccc(Cl)cc2)CC1	83	88	x	104
COC(=S)Nc1cccc(C(F)(F)F)c1	94	63	-7	98
CCCn1c(=N)c(C(=O)NC)cc2c(=O)n3cc(C)ccc3nc21	81	89	x	103
Cc1nc(-c2ccc(C)c(S(=O)(=O)N3CCC(C(=O)N4CCN(c5cccc(Cl)c5)CC4)CC3)c2)no1	x	x	-27	99
COc1ccc(-c2nn3c(-c4ccccc4F)nnc3s2)cc1	x	x	2	100
COc1cc(S(=O)(=O)N2CCCCC2C)c(OC)cc1Cl (stereo unspecified)	71	113	14	98
COc1ccc(N2C(=O)CSC23C(=O)N2CCCc4cccc3c42)cc1 (stereo unspecified)	107	98	-11	98
Nc1nnc(SCC(=O)N2c3ccccc3Sc3ccccc32)s1	35	23	-15	104
CSc1nc(NCc2ccccc2)c(C#N)c(-c2ccccc2)n1	115	98	22	100
COc1ccc(S(=O)(=O)NCc2ccccc2)cc1-c1noc(C(C)(C)C)n1	x	x	-27	111
O=C(Cn1cnc2c(cnn2-c2ccccc2)c1=O)N1CCc2ccccc21	96	93	-4	112
O=C1CCCCC1C(=O)c1cccc(C(F)(F)F)c1 (stereo unspecified)	85	92	-27	x
Cc1ccc(NC(=O)Cn2c(=O)n(-c3ccccc3)c(=O)c3ccc(C(=O)NCc4ccc5c(c4)OCO5)cc32)cc1	98	99	6	104
CC(=O)N/N=C/c1ccc(-c2cccc(C(=O)O)c2)o1	111	105	-96	101
Cc1cc(OC(C)C(=O)Nc2sc3c(c2C(N)=O)CCCCCC3)ccc1Cl (stereo unspecified)	92	90	x	102
O=C(O)c1nc2ccccc2[nH]c1=O	x	x	-47	106
Cc1ccc2c(c1)CC(C)N2S(=O)(=O)c1nnc(NC(=O)CC(C)C)s1 (stereo unspecified)	129	73	-8	109
Cc1[nH]c2ccccc2c1/C=N/n1cnc2sc3c(c2c1=O)CCCC3	72	91	x	102
O=C(CCC1N=C2c3ccccc3N=C(SCc3ccc(Cl)cc3)N2C1=O)NCc1cccs1 (stereo unspecified)	95	96	x	99
COc1cc(-c2[nH]nc3c2C(c2c(F)cccc2Cl)C(C#N)=C(N)O3)cc(OC)c1OC (stereo unspecified)	x	x	4	106

Copied from the list.
O=C(CCC1N=C2c3ccccc3N=C(SCc3ccc(Cl)cc3)N2C1=O)NCc1cccs1 (stereo unspecified) – Sa growth inh: 95
COc1cc(-c2[nH]nc3c2C(c2c(F)cccc2Cl)C(C#N)=C(N)O3)cc(OC)c1OC (stereo unspecified) – GIV Gai3 FP: 106
Cc1cc(OC(C)C(=O)Nc2sc3c(c2C(N)=O)CCCCCC3)ccc1Cl (stereo unspecified) – Sa growth inh: 92

Next part:
SMILES	Sa growth inh	Sa growth inh second temp	HCMV UL50-53 inh	GIV Gai3 FP
NS(=O)(=O)c1ccc(CCNC(=O)c2cccn3c(=O)c4cc5ccccc5cc4nc23)cc1	104	87	x	101
CS(=O)(=O)c1ccc(C(=O)OCc2cn3cc(Cl)ccc3n2)cc1	77	86	-22	x
Cc1nc(Nc2nc(=O)c3ccccc3n2C)nc2c(C)cccc12	99	93	1	98
O=C(Oc1ccccc1)Oc1ccc2sc(=O)oc2c1	95	74	-19	99
COC(=O)c1c[nH]n2c(=O)cc(CCl)nc12	96	83	-14	107
CN1C(=O)C(=Cc2ccc(N3CCN(C(=O)c4ccccc4)CC3)c([N+](=O)[O-])c2)C(=O)N(C)C1=O	x	x	-26	99
CCCCN1CC(=O)N(c2ccc(C)cc2)[C@@H]2CS(=O)(=O)C[C@@H]21	x	x	24	116
Cc1cc(Sc2ccccc2NC(=O)c2cccc(F)c2)n2ncnc2n1	x	x	9	104
O=C(NC1CCCCC1)/C(=C\c1ccco1)NC(=O)c1ccccc1	84	71	-30	115
COc1ccc(-c2nc(SCc3cc(=O)c4cc(C)ccc4[nH]3)n[nH]2)cc1	78	65	x	103
COC(=O)c1cccc(OC(N)=O)c1	100	107	-3	102
NC(=O)CSc1nc2c(oc3ccccc32)c(=O)n1-c1ccccc1F	103	76	-8	104
CCC1CCCCN1C(=O)CCn1ccnc1 (stereo unspecified)	91	86	-13	x
CCc1nc(=O)c(-c2ccccc2)c(C)n1-c1ccccc1	108	84	-5	x
Cc1ccc(S(=O)(=O)N2C(=O)CCC2C(=O)NCc2nc(-c3ccccc3)no2)cc1 (stereo unspecified)	101	81	-8	103&98
Cc1ccc2c(c1)N(C(=O)CCC(=O)NCc1ccco1)CCO2	79	85	-23	100
O=C(Nc1nnc(S(=O)(=O)N2CCOCC2)s1)c1ccc(F)cc1	104	90	-7	102
CCc1c(C)sc2c1CCN(C(=O)Nc1cccc(OC)c1)C2c1ccccc1 (stereo unspecified)	x	x	4	102
NCc1cnc2c(c1)CCC2	92	92	14	103
Cc1ccc(CCNC(=O)c2cc(-c3ccc(Cl)cc3)n[nH]2)cc1	82	95	x	104
CN(C)c1ccc(Nc2c(C(=O)N3CCCCC3)cnc3ccc(F)cc23)cc1	x	x	-24	104
O=C(CSc1nc2ccccc2o1)Nc1ccc(S(=O)(=O)NC2CCCC2)cc1	101	60	-15	103
CC1=NNC(=O)C1CC(=O)N/N=C/c1ccncc1 (stereo unspecified)	93	93	-54	95
CCOC(=O)c1c(NC(=O)CCN2C(=O)c3cccc([N+](=O)[O-])c3C2=O)sc2c1CCC2	x	x	-20	103
CCN(C(=O)COc1ncnc2ccccc12)c1ccccc1	88	99	4	x
COc1ccc(CCNC(=O)CCCn2c(=O)c3cccn3c3cccnc32)cc1OC	112	99	x	97
Brc1ccc(Nc2ncnc3c2cnn3Cc2ccccc2)cc1	x	x	-19	104
O=C1CCc2cc(S(=O)(=O)N3CCCC3C(=O)O)ccc2N1 (stereo unspecified)	108	89	0	x
CC1Cc2ccccc2N1C(=O)Cc1csc(NC(=O)c2ccccc2)n1 (stereo unspecified)	x	x	-17	108
Cc1ccc(NC(=O)Cn2c(=O)n(Cc3nc(-c4ccccc4)no3)c(=O)c3ccccc32)cc1C	88	87	x	101
CC1=CC(C)(C)c2ccccc2N1Cc1ccccc1	104	88	-4	x
COc1ccc(NC(=O)c2cn(CC(C)C)c(=O)c3cc(OC)c(OC)cc23)cc1Cl	96	90	-12	103
COc1ccc(-c2csc(-c3c(C)noc3N)n2)cc1	107	71	-2	101
